Bioassay records (PubChem)
MgrA DNA FP: S. aureus MgrA activity modulators, primary screen, biochemical, S. aureus Newman, fluorescence polarization | MgrA-DNA binding | inhibition, %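 (about 10 µg/mL by stock and volumes)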 | 84,000 compounds, 0.13% hits;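 active = above 50% in either of two replicates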;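 note: 0% = protein plus DNA without compound and 100% = DNA alone without protein; higher means less MgrA bound to DNA so lower polarization; one replicate is shown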
S aureus helic: inhibitors of S. aureus replicative helicase, primary screen, biochemical, fluorescence unwinding readout; replicative DNA helicase (DnaC/DnaB), Staphylococcus aureus; purified S. aureus helicase, fluorescence unwinding assay; about half of the hits fall short of the stated cut; inhibition, %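 (tested at about 80 µM)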; 120,000 compounds, 0.05% hits; AID 485395, 2010;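 active = both duplicates at 50% or more, or one of them with a favoured structure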;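 note: 0% = mean of negative control wells and 100% = mean of positive control wells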
Starred values were filed as active, the others as inactive; / = not tested or not shown; & = joins results of further samples. Only part of the results is shown, so the mix of outcomes need not match the whole.

Every second line gives: S aureus helic	MgrA DNA FP
COc1ccccc1C1CCN(C(=O)c2cccc([N+](=O)[O-])c2)CC1
 : /	-1.0
Cc1cccc(NC(=O)c2ccc(Cl)cc2N)n1
 : /	-2.8
CC(C)C(=O)Nc1nncs1
 : 0	-0.2
CSCCC(C(=O)OC1CCOC1=O)N1C(=O)c2ccccc2C1=O (configuration not stated)
 : -6	/
O=C(c1cc(=O)c2ccccc2o1)N1CCCC1
 : 4	-1.1
COc1ccc2c(c1OC)C(=O)N(c1ccc(O)cc1)C2
 : 19	/
COC(=O)C1=C(N)OC2=C(C(=O)CCC2)C1c1ccc(OC)cc1 (configuration not stated)
 : -7	2.2
O=C(COc1ccccc1)Nc1ccc2c(c1)C(=O)NC2=O
 : 2	-0.6
CCCCc1nnc(NC(=O)C=C(C)C)s1
 : 15	4.2
CCOC(=O)CCn1nc(-c2ccc(Cl)cc2)cc1N
 : 13	/
N#Cc1ccc(C=Nc2cccc(C(N)=O)c2)cc1
 : 23	0.8
OCn1c2c(c3ccccc31)CCCC2
 : 5	8.9
CCn1nnnc1SCC(=O)NC1Cc2ccccc2C1
 : /	-2.9
COC(=O)c1ccccc1S(=O)(=O)N1CCC(C(=O)Nc2nnc(C)o2)CC1
 : 10	/
CCOC(=O)C(C#N)C(c1ccc(F)cc1)C1CCOC(C)(C)C1 (configuration not stated)
 : 7	/
Cc1ccc(-c2nccnn2)cc1
 : 13	0.2
CC(C)(C)/C=N/NS(=O)(=O)c1ccc(-c2ccccn2)s1
 : -2	/
O=C(Cn1ncc2ccccc21)N1CCc2ccccc21
 : 17	-0.2
COC(=O)/C=c1\sc2nc3cc(Cl)c(Cl)cc3n2c1=O
 : /	5.2
O=C1N=c2ccccc2=C1c1sc(=S)[nH]c1O
 : 12	/
O=C(CSc1ncc(-c2ccc(Br)cc2)[nH]1)N(Cc1ccco1)CC(F)(F)F
 : -5	/
O=C(N/N=C/c1ccco1)c1n[nH]c2c1CCC2
 : /	0.5
CCn1c(SCc2nc3ccccc3c(=O)[nH]2)nnc1C(C)NC(=O)c1ccccc1 (configuration not stated)
 : -1	-3.7
CSc1nnc2n(/N=C/c3c[nH]c4ccccc34)cnn12
 : 16	-1.5
CC(=O)Nc1ccc(OC(=O)c2cccnc2)cc1
 : -42	/
CCOC(=O)N1CCC(NC(=O)c2oc3c(c2C)-c2[nH]ncc2CC3)CC1
 : 13	0.0
CC(C)(CO)NC(=O)c1ccc(Cl)cc1
 : 16	/
O=C(CCN1C(=O)COc2ccccc21)NCc1ccc(F)cc1Cl
 : 2	/
CCC(Sc1nc2ncccc2c(=O)n1CC1CCCO1)C(=O)Nc1cccc(OC)c1 (configuration not stated)
 : 2	-2.0
OC(CN1CCN(Cc2ccc3c(c2)OCO3)CC1)c1ccccc1 (configuration not stated)
 : /	0.0

Next structures.
Every second line gives: S aureus helic	MgrA DNA FP
CN(C(=O)c1ccccc1)C(=O)N(C)C(=O)c1ccccc1
 : /	2.2
CCS(=O)(=O)c1ccc(O)c(N=Cc2ccc(C)o2)c1
 : -37	/
Cc1cc(C)c(CSc2ccccn2)c(C)c1
 : /	-0.3
Cn1c(O)c(N=NC(=S)Nc2ccccc2)c2ccccc21
 : -9	4.6
C=CCn1c(SCC(=O)c2cccs2)nc2scc(-c3ccccc3)c2c1=O
 : -13	/
Cc1ccc(NC(=O)C2C3/C=C\CCCCC32)cc1 (configuration not stated)
 : -8	0.9
Cc1ccc(S(=O)(=O)c2c[nH]c(=S)[nH]c2=O)cc1
 : -1	-0.1
CCOC(=O)c1sc2ncnc(N3CCc4ccccc4C3)c2c1C
 : 17	/
N#Cc1ccc(CONC(=O)c2cccs2)cc1
 : 9	/
CC(N)C(c1ccccc1)N1CCOCC1 (configuration not stated)
 : 7	8.6
Clc1cccc(Cl)c1-c1nn[nH]n1
 : /	-0.6
O=C(O)c1nccnc1C(=O)NCc1csc2ccccc12
 : /	1.8
CN(C)S(=O)(=O)Nc1ccc(Cc2ccncc2)cc1
 : 3	0.2
NC(=O)C1CCCN(C(=O)CCCSc2nc3ccccc3s2)C1 (configuration not stated)
 : 8	/
Cc1ccc(S(=O)(=O)c2nc(-c3ccccc3)oc2N2CC(C)OC(C)C2)cc1 (configuration not stated)
 : 1	/
Cc1[nH]c(=O)c(C#N)c(C)c1CCC(=O)N1C(=NCc2ccccc2)SCC1(C)C
 : -8	/
O=C(Nc1nnc(CCS(=O)(=O)c2ccc(Br)cc2)s1)c1ccc([N+](=O)[O-])cc1
 : /	-2.4
CSc1ccc(/C=c2\s/c(=C(/C#N)C(=O)N3CCN(C)CC3)n(-c3cccc(C)c3)c2=O)cc1
 : 0	/
N#Cc1ccc(COC(=O)CSC(=S)N2CCOCC2)cc1
 : 16	/
O=C(COC(=O)c1ccc(-c2nnc(-c3ccccc3)o2)cc1)c1ccc(F)cc1
 : -11	/
Cc1ccc(C(=O)C2CCOC(C)(C)C2)cc1 (configuration not stated)
 : 0	-1.2
O=C(NC1CCCC1)C1CC(c2ccc(F)cc2)=NO1 (configuration not stated)
 : 7	/
O=C(c1ccc2c(=O)n(CCC3=CCCCC3)c(=S)[nH]c2c1)N1CCCC1
 : -7	-0.1
O=C1C(C=Nc2ccccc2O)=C(O)c2ccccc21
 : 1	1.7
O=C(NCn1ccc(=O)[nH]c1=S)c1ccccc1
 : 6	5.2
O=C(CSc1nnc(-c2sc3ccccc3c2Cl)o1)NCC(F)(F)F
 : -3	/
COC(=O)c1cc(NC(=O)c2cc(C(F)(F)F)cc(C(F)(F)F)c2)ccc1N1CCOCC1
 : /	-0.9
CCC(=O)Nc1nnc(SC)s1
 : 13	/
Oc1ccc(OCc2ccccc2)cc1
 : /	3.8&0.2
CC(C)CC(NC(=O)C1CCC(C)CC1)C(=O)NCc1cccs1 (configuration not stated)
 : 5	/

Some of the entries above in another layout.
SMILES	S aureus helic	MgrA DNA FP
CCC(=O)Nc1nnc(SC)s1	13	/
Oc1ccc(OCc2ccccc2)cc1	/	3.8&0.2

(further entries)
Every second line gives: S aureus helic	MgrA DNA FP
Cc1sc2ncn(CC(=O)N(C)Cc3ccc(Br)s3)c(=O)c2c1C
 : -6	/
Cc1cc(Br)c(NC(N)=S)c(Br)c1
 : /	-0.8
O=C(N/N=C/c1ccsc1)C1CC1
 : 8	/
Cc1cccc(CSc2nc3c(c(=O)[nH]2)C(C(C)C)C2=C(CC(C)(C)CC2=O)N3)c1 (configuration not stated)
 : 12	0.2
CCn1nc(C(=O)Nc2nccs2)c2ccccc2c1=O
 : 16	/
C=CCN(c1ccccc1C(=O)NCC(=O)O)S(=O)(=O)c1ccc(C)cc1
 : /	-1.5
CCOC(=O)c1[nH]c(C(=O)O)c(CCC(=O)OC)c1C
 : -18	/
Cc1cc(C)c2c(n1)sc1c(=O)n(CC(=O)c3ccccc3)cnc12
 : /	-0.9
O=C(Nc1nnc(CCS(=O)(=O)c2ccc3ccccc3c2)s1)c1ccc(F)cc1
 : /	-0.4
COC(=O)NN1C(=O)c2ccccc2C1=O
 : -1	0.2
Cc1ccc(CCNC(=O)C(C)c2c(C)n[nH]c2C)cc1 (configuration not stated)
 : -1	/
CC(=O)Nc1ccc(OCC(O)CNC(C)C)cc1 (configuration not stated)
 : /	5.8
CCSc1ccc2c3c(cccc13)C(=O)N(NCCO)C2=O
 : /	4.3
N#CCc1nc(=O)c2ccccc2s1
 : 7	-0.1
Nc1c(-c2cccc(C(F)(F)F)c2)cnn1-c1ccccc1
 : /	-1.8
CCOC1=NN(c2ccc([N+](=O)[O-])cc2)C(=O)/C1=C\c1cc(OC)c(OC)cc1OC
 : /	-0.1
CNC(=S)Nc1cnn(Cc2cccc3ccccc23)c1
 : 18	8.2
CCOc1ccc(-c2nc3ccc(Cl)cn3c2C)cc1
 : /	-1.2
O=C1CC2(CCCC2)C(=O)N1CCCNc1ncc(C(F)(F)F)cc1Cl
 : /	-2.0
CCc1nc(SCC(N)=O)n[nH]1
 : 0	/
COC(=O)c1ccc(COc2cc(C)cc(C)c2)o1
 : 9	-6.7
O=C(NCc1ccccc1)c1ccc2nc(N3CCOCC3)sc2c1
 : -2	/
O=C(Oc1cccc2cccnc12)N1CCCCCC1
 : 6	0.3
O=C1CN(CC(=O)N2CCN(c3ccc(F)cc3)CC2)c2ccccc2O1
 : 13	7.2
N/N=C1\CCCc2c1[nH]c1ccc(C(=O)NN)cc21
 : 14	0.6
CCOC(=O)c1cnn(-c2nc3ccccc3n2C)c1/N=C/N(C)C
 : -5	/
O=S(=O)(Nc1ccc2oc3c(c2c1)CCCC3)c1ccc(F)cc1
 : 0	-1.6
N#Cc1cccc(C(=O)OCc2cc(=O)oc3cc(O)ccc23)c1
 : 10	/
CCOC(=O)c1cc(O)c(C(=O)OCC)s1
 : 14	/
CCNC(=O)NCc1nc(-c2ccccc2)no1
 : 10	0.9

The listing continues:
Every second line gives: S aureus helic	MgrA DNA FP
FC(F)(F)c1ccnc(N2CCCNCC2)n1
 : /	0.5
COC(=O)/C(C#N)=C\C=C\c1ccccc1
 : -7	/
O=S(=O)(NN1CCOCC1)c1cccc2cccnc12
 : 7	-1.5
CCOc1cc(CN2CCN(CC(=O)N3CC(C)CC(C)C3)CC2)cc(Br)c1OC (configuration not stated)
 : -5	/
Cc1ccc(OS(=O)(=O)c2cc(Cl)c(Cl)cc2Cl)c(Br)c1
 : /	-2.7
N/N=C(\C(=O)O)c1ccccc1N
 : 8	8.6
CCN(CC)c1cc(C)c2cc(NC(=O)c3ccc(Br)c(OC)c3)ccc2n1
 : 8	-1.1
CCCc1c(C(=O)NNc2ccc(C)cc2)cnn1-c1ccccc1
 : 14	/
O=C1CCCN=C(Nc2ccc(F)c(Cl)c2)S1
 : /	1.4
CCOC(=O)c1cc(Sc2ccccc2)cc(C(=O)OCC)n1
 : /	-3.2
CC(=O)Nc1ccc(-c2nn[nH]n2)cc1
 : 4	0.6
Nc1nn(-c2ccc(Cl)cc2)nc1C(=O)c1ccccc1
 : /	-2.2
CC(C)NC(=S)Nc1cccc2cnccc12
 : -14	/
CC1Cn2c(COc3ccccc3)nnc2S1 (configuration not stated)
 : 15	4.3
CN(C)CC1CCCCC1O (configuration not stated)
 : 11	0.1
COC(=O)C1=C(N)CCCC1
 : /	-2.3
CN1CCN(NC(=O)CCN2C(=O)/C(=C/c3ccc(Cl)cc3)SC2=S)CC1
 : /	-1.4
CC(C)N(C(=O)Cn1ccnc1)c1ccccc1
 : 21	2.8
CCn1cc(CN(C)C(=S)Nc2ccc(OC)c(OC)c2)c(C)n1
 : 8	1.5
CC12CCCCC1(O)N(O)C(C(=O)c1ccccc1)=N2 (configuration not stated)
 : 12	2.1
COc1ccc(-c2csc(COC(=O)C(C)(C)C)n2)cc1
 : /	-1.5
COc1ccc(-c2nnc(SCC(=O)NCC(F)(F)F)o2)cc1
 : -11	/
Cc1ccc(Nc2c(-c3ccccc3)nc3ccccn23)cc1
 : 12	0.5
NC(=O)C1CCN(C(=O)CCc2nnc3n(Cc4ccccc4)c(=O)c4ccccc4n23)CC1
 : 9	-1.0
C=CCN(CC(=O)Nc1ccc2c(c1)OCO2)S(=O)(=O)c1ccccc1F
 : 26	/
CCCOc1ccc(N)cc1N
 : -1	3.7
Cc1csc2sc(CO)c(C)c12
 : /	2.7
COC(=O)C(C)Sc1ncc(-c2ccccc2)nn1 (configuration not stated)
 : -2	-3.6
CCOC(=O)C1=C(O)C(=O)N(Cc2ccccc2)C1
 : /	-0.5
O=C(CC(C(=O)O)C1CCCO1)NC1CCCCC1 (configuration not stated)
 : -7	/

Some of these compounds in order of their number in S aureus helic, ascending:
SMILES	S aureus helic
O=C(CCN1C(=O)COc2ccccc21)NCc1ccc(F)cc1Cl	2
OCn1c2c(c3ccccc31)CCCC2	5
N/N=C(\C(=O)O)c1ccccc1N	8
CC12CCCCC1(O)N(O)C(C(=O)c1ccccc1)=N2 (configuration not stated)	12
CCCCc1nnc(NC(=O)C=C(C)C)s1	15
O=C(Cn1ncc2ccccc21)N1CCc2ccccc21	17

Next section.
Every second line gives: S aureus helic	MgrA DNA FP
O=C(c1cc(-c2ccccc2)c(C(F)(F)F)s1)N1CCCC1
 : /	-2.9
O=C(C1CCCCC1)N1CCN(C(=O)C2CCCCC2)CC1
 : -1	1.2
CN(C)S(=O)(=O)c1cccc(C(=O)N2CCC(C(N)=O)CC2)c1
 : 13	/
COc1cccc(-n2nc(C(=O)N3CCC(C(N)=O)CC3)c3ccccc3c2=O)c1
 : 4	/
O=C(O)/C=C/C(=O)Nc1nccs1
 : /	-2.5
Oc1ccc2ccccc2c1Sc1nnnn1-c1ccccc1
 : 13	/
O=C(NCC1CC1)Nc1cccs1
 : 2	/
C=CCN(C(=O)c1cc2c(=O)oc3ccc(C)cc3c2s1)c1ccccc1
 : 22	0.1
Cc1ccccc1N1CC23C=CC(O2)C(C(=O)OC(C)C)C3C1=O (configuration not stated)
 : -21	/
CS(=O)(=O)Nc1ccc(/C(N)=N/OC(=O)c2ccc(Cl)cc2)cc1
 : -42	/
CCCCC(CC)C(=O)Nc1ccc(C#N)cc1 (configuration not stated)
 : 11	-2.1
CCOC(=O)c1oc2ccc(C=NC(C)(C)C)c(Cl)c2c1C
 : 18	-2.2
CCOC(=O)c1c(C)oc2c1c(C=NCc1ccccn1)c(O)c1ccccc12
 : 10	/
CCc1ccc2c(O)c3c(cc2c1C(=O)OC)C(=O)c1c(O)ccc(O)c1C3=O
 : /	8.0
O=S(=O)(c1ccc(Cl)cc1)N1CCCC1c1cccs1 (configuration not stated)
 : 10	/
COc1ccc2cc3c(N)nn(C(=O)CN4CCOCC4)c3nc2c1
 : -5	/
COc1ccc(CCN2COc3c(cc(Cl)c4cccnc34)C2)cc1OC
 : 14	/
COCc1nc2ccccc2n1Cc1ccccc1Cl
 : 9	/
Cc1cccc(OCCCC(=O)Nc2ccc3c(c2)OCO3)c1
 : 3	/
